Compound activity: PubChem BioAssay, National Center for Advancing Translational Sciences (NCATS)
Vaccinia mCherry: qHTS for Stage-Specific Inhibitors of Vaccinia Orthopoxvirus: mCherry Reporter Primary qHTS; Vaccinia virus mCherry reporter infection, fluorescence; about a quarter of the inactives have no number; Potency, µM (titrated, usually from 36.5 µM), without a hit: at the highest dose activity change, negative = inhibition, actives largely listed as inhibitors; 310,000 tested, 0.63% active; AID 720579, 2013; active = well fitted inhibition curve with a large enough effect; inconclusive = small, poorly fitted or top-dose-only effect; inactive = no such curve, though single readings can be large or run the other way; tested in A549 cells; further: nearly all actives have a fitted effect of over 35% in size; inactives centre near -10
VACV Venus inh: qHTS for Stage-Specific Inhibitors of Vaccinia Orthopoxvirus: Venus Reporter Primary qHTS; Vaccinia virus Venus reporter expression, fluorescence; Potency, µM (highest dose often 36.5 µM), for inactives: top-dose activity change, negative = inhibition, most hits filed as inhibitors; 330,000 tested, 0.46% active; AID 720580, 2013; active means well fitted inhibition curve with a large enough effect; inconclusive means small, poorly fitted or top-dose-only effect; inactive means no such curve, though single readings can be large or run the other way; tested in A549 cells; further: nearly all actives have a fitted effect of over 30% in size; inactives centre near -10
* hit, by the source's call; i = inactive; ? = inconclusive; nt = not tested or not shown; & = joins results of further samples; [ ] = another dose, or the depositor's remark. On the % scale 0 is the no-effect control and ±100 the full control effect; potency means the concentration at half of the fitted maximal effect.

Below each SMILES: Vaccinia mCherry, VACV Venus inh
- CC(=O)N1CCCC(C)(C(=O)Nc2cccc(OC(C)C)c2)C1 (stereo not given)
 : -8%, -2%
- COc1ccc(S(=O)(=O)N(CC(=O)NCC2CCCO2)c2ccc(Cl)cc2)cc1 (stereo not given)
 : -24%, -10%
- COc1ccc(N=C2S/C(=C\c3ccc(C)o3)C(=O)N2CC(C)C)cc1
 : -11%, 1%
- O=S(=O)(NCC(c1ccco1)N1CCOCC1)c1ccc(F)cc1 (stereo not given)
 : -7%, 0%
- Cc1cccc(C)c1NC(=O)NC1(C(=O)N2CCCCC2)CCCCC1
 : 6%, 4%
- Cn1c(N2CCOCC2)c(/C=N/O)c2ccccc21
 : -11%, -1%
- CCCOc1ccc(N2C(=O)CC(N3CC=C(c4ccccc4)CC3)C2=O)cc1 (stereo not given)
 : i, 0%
- O=C(O)c1cc(S(=O)(=O)Nc2ccc(OCc3ccccc3)cc2)ccc1Br
 : ?, -14%
- N#CC1(NC(=O)COC(=O)c2ncc(Cl)c(Cl)c2Cl)CCCCC1
 : -2%, -10%
- O=C(NCCc1ccccn1)c1cccc(S(=O)(=O)N2CCCCCC2)c1
 : i, -15%
- Cc1nn(CCCC(=O)Nc2ccccc2C(F)(F)F)c(=O)c2c1sc1ccccc12
 : -15%, -10%
- Cc1ccc(-n2c(-c3ccc(Cl)cc3Cl)n[nH]c2=S)cc1
 : -26%, -29%
- NS(=O)(=O)c1ccc(NC(=O)c2cc(-c3cccs3)nc3ccccc23)cc1
 : 4%, 6%&-13%
- COc1ccc(CCNCC(C)c2ccccc2)cc1 (stereo not given)
 : -12%, -10%
- CN(CC(=O)Nc1ccc(F)cc1Cl)Cc1cccs1
 : 1%, -6%
- O=C(Nc1nnc(-c2ccc(Cl)cc2)o1)c1ccc(N2C(=O)CCC2=O)cc1
 : i, -8%
- O=C(Nc1cc(-c2nc3cc(Cl)ccc3o2)ccc1Cl)c1cccs1
 : 5%, 10%
- CCCn1c(=O)[nH]c(=O)c2c1nc(-c1ccc(C#N)cc1)n2CCOC
 : -21%, 15%
- Cc1ccc2c(c1)C(=O)N1[C@H]3c4cc(Br)ccc4OC[C@@H]3[C@H](c3ccccc3)[C@]1(C)C(=O)N2
 : -18%, ?
- COc1cc(NC(=O)c2ccccc2F)ccc1NC(=O)c1cc2ccccc2o1
 : -13%, -9%
- O=C(/C=C/c1ccccc1)Nc1scc(-c2ccccc2)c1C(=O)O
 : 5%, -13%
- COCCCNC(=O)CCn1c(=O)c2ccccc2n(CC(=O)Nc2c(C)cccc2C)c1=O
 : nt, -24%
- CN(Cc1ccco1)C(=O)c1ccc2c(c1)N(Cc1ccccc1F)C(=O)c1ccccc1S2
 : -3%, 2%
- COc1ccc2c(=O)c3c(=O)n(-c4ccccc4)c(-c4ccc(C)cc4)nc3oc2c1
 : -8%, -2%
- Cc1ccnc(NC(=O)C2(c3cccs3)CCOCC2)c1
 : -11%, -11%
- CC1(C)C2CC[C@]3(C)C(CC=C4[C@@H]5C[C@@](C)(CO)[C@@H](O)C[C@]56C[C@@H](OC6=O)[C@]43C)[C@@]2(C)CC[C@@H]1O (stereo not given in full)
 : 0%, -2%
- Cc1ccc(-c2cc(-c3ccccc3)c3c(N)c(S(C)(=O)=O)sc3n2)cc1
 : ?, ?
- Cc1oc(S(=O)(=O)N2CCCC2)cc1C(=O)Nc1ccc(F)cc1
 : -2%, -6%
- CC1CCC/C(=N/NC(=O)c2ccccc2-n2cccc2)C1 (stereo not given)
 : -4%, -15%
- O=C(O)c1ccc(C=NN=C2c3ccccc3-c3ccccc32)cc1
 : i, -3%

Remaining list, next part:
Below each SMILES: Vaccinia mCherry, VACV Venus inh
- O=C(CSc1nn(-c2ccc(F)cc2)c(=S)s1)N1CCN(C(=O)c2ccco2)CC1
 : -6%, -13%
- CC/C(=N\NC(=O)Nc1ccccc1)c1c(O)n(Cc2ccccc2)c(=O)[nH]c1=O
 : -1%, -9%
- COCCNC(=O)C1(C)CCN(C(=O)/C=C/c2ccccc2)C1 (stereo not given)
 : 27%, -1%
- Fc1cccc(CSc2nnc3ccc(-c4ccncc4)nn23)c1
 : -9%, 1%
- O=C(/C=C/c1ccc(S(=O)(=O)NCc2ccco2)cc1)NCc1ccccc1Cl
 : ?, ?
- CC(C)NC(=O)c1cc2n(n1)C(C(F)(F)F)CC(c1ccco1)N2 (stereo not given)
 : 0%, -8%
- Nc1c(C(=O)N2CCCC2)sc2nc3c(cc12)CCCCCC3
 : -2%, -10%
- CC1CCCCN1C(=O)c1ccc(COc2ccc([N+](=O)[O-])cc2)o1 (stereo not given)
 : i, -12%
- O=C(c1cc2c(s1)CCCC2)N1CCN(c2ccccc2)CC1
 : i, -1%
- CCN(CC)C(=O)c1nn(-c2ccccc2)c2c1C1CCC2(C)C1(C)C (stereo not given)
 : -4%, -11%
- COc1ccc(C(=O)NC2CCSc3ccccc32)cc1F (stereo not given)
 : -24%, -7%
- CCOC(=O)Cc1csc(NS(=O)(=O)c2ccc(F)cc2)n1
 : i, -7%
- Cc1cc(C(=O)CSc2nc(N)cc(N)n2)c(C)n1CC1CCCO1 (stereo not given)
 : i, 5%
- CC(NC(=O)CCn1c(=S)[nH]c2ccsc2c1=O)c1ccccc1 (stereo not given)
 : -4%, -4%
- CCc1cc2ccccc2nc1SCC(=O)Nc1cc(C)on1
 : nt, 2%
- C[C@@]12C(=O)N(c3cccc(Br)c3)C(=O)N1[C@H](c1ccc(Cl)cc1)[C@@H]1C(=O)N(C3CCCCC3)C(=O)[C@@H]12
 : -7%, ?
- CCN1C2=NCCCN2c2cc(C)c(C)cc21
 : nt, -1%
- CCOC(=O)c1cccc(Nc2cc(-c3ccccc3)ncn2)c1
 : -13%, -14%
- Cc1ccccc1NC(=O)c1ccc(N/N=C/c2ccccc2O)c([N+](=O)[O-])c1
 : -19%, -8%
- Cc1cc(C)c(C#N)c(Oc2ccccc2)n1
 : nt, -7%
- C=CCN(CC=C)C(=O)C1CCC(C(=O)N(CC=C)CC=C)CC1 (stereo not given)
 : nt, 25%
- Clc1ccc(CCC(Cn2ccnc2)Sc2c(Cl)cccc2Cl)cc1 (stereo not given)
 : -7%, -22%
- CC(C)(C)OC(=O)N1CCC(c2c(C(=O)NCCN3CCCC3)cnn2-c2ccc(Cl)cc2)CC1
 : -13%, -20%
- CCn1c(=O)c2cc(C(=O)NCCc3cc(OC)ccc3OC)sc2c2ccccc21
 : 1%, -5%
- CCCNC(=O)c1cc2nc(-c3ccccc3)cc(C(F)(F)F)n2n1
 : -13%, -7%
- CC(SCC(=O)NC(C)C1CC2CCC1C2)C(=O)O (stereo not given)
 : -10%, 1%
- CCN1CCCC1CNC(=O)C(NC(=O)C1CCC(C)CC1)C(C)C (stereo not given)
 : -17%, -4%
- C[C@]12CCC3C(CC[C@H]4CC(O)CC[C@]34C)C1CC/C2=N/O (stereo not given in full)
 : -6%, 4%
- Cn1c(N)c(C(=O)COC(=O)C2Cc3ccccc3CN2S(C)(=O)=O)c(=O)n(C)c1=O (stereo not given)
 : i, -7%
- Cc1nc(SCC(=O)NCC2CCCO2)c2c3c(sc2n1)CCC3 (stereo not given)
 : i, -21%

The listing continues.
Below each SMILES: Vaccinia mCherry, VACV Venus inh
- CC(C)CN=CC1=C(O)c2ccccc2C1=O
 : -10%, -9%
- C/C(=N/NC(=O)c1ccccc1)c1ccc(NC(=O)C(F)(F)F)cc1
 : ?, ?
- Cc1cccc(NC(=O)CSCC(=O)N2CCN(Cc3ccc4c(c3)OCO4)CC2)c1
 : -9%, -8%
- CC1(N(O)C=C2C=CC(=O)C=C2)CCCCC1=O (stereo not given)
 : i, -8%
- CCOC(=O)N1CCN(Cc2c(F)cccc2F)CC1
 : nt, -14%
- COc1ccc(C(=O)NC(C)c2ccc(-n3ccnc3)cc2)c(OC)c1OC (stereo not given)
 : -3%, -3%
- CCCCCCCCc1nnc(NC(=O)c2ccco2)s1
 : -7%, -13%
- Cc1cccc(-c2nnc(SC(C)C(=O)N3CCOCC3)o2)c1 (stereo not given)
 : -8%, 2%
- CCc1ccc(N2CC(C(=O)NCc3ccco3)CC2=O)cc1 (stereo not given)
 : 13%, 17%
- COc1cccc(CSc2nc3cc(OC)c(OC)cc3c3nc(CCn4nc(C)cc4C)nn23)c1
 : -13%, -9%
- COCCNC(=O)c1cc(-c2ccccc2)nn1CC1CC(c2cccnc2)=NO1 (stereo not given)
 : -25%, -10%
- CCOC(=O)c1cc(CC)sc1/N=C/C1C(=O)CCCC1=O
 : -8%, -10%
- COc1ccc(CC(=O)Nc2c(C(=O)N3CCN(c4ccccc4OC)CC3)oc3ccccc23)cc1OC
 : -9%, -18%
- Cn1c(=O)[nH]c(=O)c2c1nc(N1CCOCC1)n2CC(=O)c1ccccc1
 : -1%, -3%
- Cc1ccc(C)c(N(CC(=O)NC2CCCCC2)C(=O)CNC(=O)c2ccco2)c1
 : -4%, -5%
- OC(CCCC(O)c1ccccc1)c1ccccc1 (stereo not given)
 : -19%, -7%
- COc1ccccc1NS(=O)(=O)c1ccc(C(=O)NCC2(N(C)C)CCCCC2)cc1
 : i, -19%
- CCOC(=O)C1=C(Nc2ccc(Cl)cc2)OCC1=O
 : -23%, -18%
- CC(C)C(=O)N1CCN(c2ccccc2NC(=O)c2ccc(C#N)cc2F)CC1
 : 0%, -2%
- Cc1nn(Cc2ccccc2Cl)c(C)c1C(=O)NCCN1C(=O)S/C(=C\c2ccccc2)C1=O
 : -14%, -6%
- Cn1c(=O)c(=O)n(C)c2cc(S(=O)(=O)Nc3ccc(OC(F)(F)F)cc3)ccc21
 : i, -17%
- CSC1=NC2(CCN(C(=O)NC3CCCCC3)CC2)N=C1c1ccc(C)c(C)c1
 : -7%, -16%
- CC1CCCC(NC(=O)COC(=O)Cc2ccc(Br)cc2)C1C (stereo not given)
 : i, -6%
- CC(C)(C)c1ccc(C(=O)Nc2ccc(F)cc2)s1
 : i, 0%
- CCC(C)Sc1oc(-c2ccco2)nc1S(=O)(=O)c1ccc(C)cc1 (stereo not given)
 : -14%, -13%
- O=c1cc(-c2ccccc2)nc2cc(-c3ccc(F)cc3)[nH]n12
 : -26%, ?
- COc1ccc(/C=N/NC(=O)CNC(=O)C2COc3ccccc3O2)cc1OC (stereo not given)
 : i, 6%
- Cc1cc(Cl)ccc1OCC(=O)NCCCn1ccnc1
 : i, -16%
- Cc1ccc2nc(NC(=O)CSc3nc4ccccc4o3)sc2c1
 : -4%, 1%
- CCN1CCCC1CNC(=O)Cn1nc(C)n2nc(-c3ccccc3)cc2c1=O (stereo not given)
 : -2%[7.34 µM], -4%[7.34 µM]

Remaining list, next part:
Below each SMILES: Vaccinia mCherry, VACV Venus inh
- COc1ccc(C(=O)O[C@H]2CC[C@@]3(C)C4CCC5[C@]6(O)C[C@H](O)[C@@]7(O)C(CN8C[C@@H](C)CC[C@H]8[C@@]7(C)O)[C@]6(O)C[C@@]53O[C@@]42O)cc1OC (stereo not given in full)
 : -22%[20.9 µM], -15%[20.9 µM]
- COc1ccccc1CNC(=O)c1ccc2nc(N3CCCCC3)sc2c1
 : -26%, -17%
- O=C(NCc1ccccc1)c1ccc(-c2cn[nH]c2)c2ccoc12
 : ?, ?
- CC1(C(=O)Nc2cccnc2)Cc2c(-c3ccc4c(c3)OCO4)ccnc2O1 (stereo not given)
 : ?, -26%
- CC(C)(C)C(=O)NCc1ccc(C(=O)CSc2nnc(-c3ccncc3)n2C2CC2)s1
 : -10%, -10%
- CCOc1ccc(CN2C(=O)c3ccccc3C2=O)cc1C(=O)Nc1nnc(SCC)s1
 : i, -9%
- Cc1c(C=O)cnn1CCC(=O)O
 : -18%, -10%
- Cc1cccc(NC(=O)C(=O)NCc2ccccn2)c1
 : 0%, -9%
- CC1CCN(C(=O)CSc2nnc(CNC(=O)c3ccco3)o2)CC1
 : -25%, -6%
- CCCc1nc2ccccc2n1Cc1ccccc1OC
 : 0%, -2%
- CCN(CC)C(=O)CSc1nc2ccccc2c(=O)n1-c1ccccc1OC
 : nt, ?
- COc1ccc(NC2c3ccccc3C(=O)N2c2ccccn2)cc1Cl (stereo not given)
 : ?, 1%
- CCOC(=O)c1sc(N/N=C/c2ccccc2)nc1C
 : -23%, -4%
- COc1ccc(CC(=O)NC2CC(=O)N(c3ccc(C)c(C)c3)C2)cc1OC (stereo not given)
 : -11%[7.34 µM], -5%[7.34 µM]
- COCCN(C(=O)c1ccco1)c1nnc(-c2ccc(OC)c(OC)c2)s1
 : nt, -17%
- CCc1c(O)nc(SC2CC(=O)N(c3ccccc3)C2=O)[nH]c1=O (stereo not given)
 : nt, -21%
- Cc1ccc(F)cc1NC(=O)CCc1c(C)[nH]c(=O)c(C#N)c1C
 : i, -1%
- O=C(Nc1cc(S(=O)(=O)Nc2ccc(Cl)cc2)ccc1O)c1ccc(S(=O)(=O)N2CCCCCC2)cc1
 : ?, -26%

Quoted at random: 6 entries already listed
Below each SMILES: Vaccinia mCherry, VACV Venus inh
- CCOc1ccc(CN2C(=O)c3ccccc3C2=O)cc1C(=O)Nc1nnc(SCC)s1
 : i, -9%
- CCCc1nc2ccccc2n1Cc1ccccc1OC
 : 0%, -2%
- CC(C)(C)C(=O)NCc1ccc(C(=O)CSc2nnc(-c3ccncc3)n2C2CC2)s1
 : -10%, -10%
- Cc1ccc(F)cc1NC(=O)CCc1c(C)[nH]c(=O)c(C#N)c1C
 : i, -1%
- COc1ccc(CC(=O)NC2CC(=O)N(c3ccc(C)c(C)c3)C2)cc1OC (stereo not given)
 : -11%[7.34 µM], -5%[7.34 µM]
- O=C(Nc1cc(S(=O)(=O)Nc2ccc(Cl)cc2)ccc1O)c1ccc(S(=O)(=O)N2CCCCCC2)cc1
 : ?, -26%
